Compound activity: PubChem, several laboratories
Autofluor counter: compound fluorescence in toxin protease inhibitor counterscreen. AID 624483. fluorescence intensity (test concentration not listed). 3.1% of 360,000 active. compound autofluorescence counterscreen, microsphere flow cytometry; hits give high values;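 active = at least 3 SD above the mean of all compounds, about 16000 in these data; inconclusive = too few beads counted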;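 also: 100 nL of 1 mM stock went into each well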
Sa ugtP lethal: growth inhibition of S. aureus ugtP deletion strain; S. aureus RN4220 ugtP deletion, OD600 growth, 16 h; some inactives read as strong as hits; growth inhibition, % (test concentration not listed); 0.54% of 330,000 active; AID 1259309;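 active = z-score under -3 and OD600 up to 0.15 on both plates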;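 also: plate controls were untreated wells for no effect and antibiotic for full effect; wells of about 80 µL received 100 nL stock; the first replicate is given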
RN4220 kill: kills Staphylococcus aureus RN4220 | S. aureus RN4220 growth, OD600, 16 h | inhibition, % (no concentration beside the values) | 0.33% of 330,000 active | AID 1259311;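 active = z-score of -3 or lower and OD600 up to 0.18 on both plates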;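 also: plate controls were untreated cells for no effect and reference antibiotic for full effect; stock transfer was 100 nL into about 80 µL; one replicate is shown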
PrP 5UTR inh: inhibition of PrP 5' UTR reporter expression; 0.35% of 340,000 active; inhibition, % (concentration not given with the values); cell-based PrP 5' UTR mRNA reporter, plate reader;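 active = every replicate at 50% or more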;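 also: 0 = median of the neutral control wells; tested in H4 reporter cells; numbers are from one replicate; inactives centre near -14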
BJeLR lethal: kills HRASV12-expressing BJeLR cells | BJeLR (HRASV12) viability, CellTiter-Glo ATP luminescence, 48 h; reference of the scale not given here | AID 1554 | 0.17% of 300,000 active | inhibition, % (no concentration beside the values);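 active = replicate mean above 50%; inconclusive = above 50% but judged a plate artefact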;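 also: 50 nL library stock added to about 25 µL; numbers are from one replicate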
Mtb hypoxia rep: reduces hypoxia-regulated biosensor signal in M. tuberculosis; M. tuberculosis hypoxia-regulated fluorescent reporter, fluorescence; 0.1% of 300,000 active; fluorescence inhibition, % (concentration not given with the values); AID 1159583;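 active = 35 to 45% if threefold the growth effect, above 45% if 1.5-fold the growth effect; inactive = the rest, general growth blockers included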;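 also: wells of about 50 µL received 100 nL stock; 0% = vehicle wells and 100% = reference inhibitor wells; whole bacteria with a GFP reporter of the hypoxia response; strong numbers were not always called active; many hits fall short of the cut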
Mtb hypoxia rep growth: recorded beside Mtb hypoxia rep, whose call it bears; growth inhibition, %; measured here: M. tuberculosis growth (absorbance);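 0% = vehicle and 100% = reference antibiotic; read after six days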
* hit, by the source's call; ? = inconclusive; . = no result given.

smiles	Autofluor counter	Sa ugtP lethal	RN4220 kill	PrP 5UTR inh	BJeLR lethal	Mtb hypoxia rep	Mtb hypoxia rep growth
CCOc1ccc(C(C(=O)NC(C)(C)C)N(CCOC)C(=O)CCC(=O)Nc2nccs2)cc1 (stereo unspecified)	3721	10	-0.2	-22	12	1	2
COc1ccc(/C=C2\SC(=O)N(CC(=O)NC3CCS(=O)(=O)C3)C2=O)cc1 (stereo unspecified)	4226	10	7.2	3	-2	5	-9
Cc1cccc(N2CCN(C(=O)COc3ccc4c(C)cc(=O)oc4c3C)CC2)c1C	5635	-5	-2.4	3	1	2	11
CC1(C)CC2CC(C)(CN2C(=O)c2cc(-c3ccc(F)cc3)on2)C1 (stereo unspecified)	5854	-18	4.2	-14	0	-2	-4
O=C(NN=C/C=C/c1ccc2c(c1)OCO2)c1cccnc1	.	10	2.1	.	.	-8	-2
Cc1ccc(C(=O)COC(=O)C(C)N2C(=O)C3C4C=CC(C4)C3C2=O)cc1C (stereo unspecified)	7029	3	0.1	-12	2	0	-4
Cc1cc2ccccc2c(=O)n1CC(=O)NCC(=O)N(C)C1CCCCC1	7982	4	4.4	-7	4	7	10
COc1ccc2c(C)cc(SCC(=O)NC3CCCC3)nc2c1	4171	6	4.2	-11	.	.	.
Cc1ccc(NC(=O)c2cc([N+](=O)[O-])ccc2N2CCOCC2)cc1S(=O)(=O)N(C)C	4597	8	6.6	9	-10	-14	1
COc1ccc(CC(NC(C)=O)C(=O)N2CCN(C(=O)Nc3cccc(Cl)c3)CC2)cc1OC (stereo unspecified)	4877	4	-3.9	9	-3	.	.
COc1ccc(C=NNC(=O)c2ccccc2O)cc1Cn1cc([N+](=O)[O-])cn1	.	2	-1.3	.	.	-7	12
CN1CCOc2cc(S(=O)(=O)Nc3ccc(F)cc3)ccc21	4646	-4	3.3	-1	12	.	.
O=S(=O)(NCCS(=O)(=O)N1CCN(c2ccccc2)CC1)c1ccccc1	4423	12	0.5	-4	-4	7	-3
CCC(C(=O)NN=Cc1cccnc1)c1ccccc1 (stereo unspecified)	.	-3	-0.9	.	.	20	20
CCc1ccc(N/C(N)=N/c2nc(CSc3ncccn3)cc(=O)[nH]2)cc1	4763	1	1.7	-15	2	-11	-2
O=C(Cc1cccs1)NNC(=S)NC(=O)c1ccc(F)c(F)c1	2054	10	35	-35	8	10	11
COCCn1c(SCC(=O)N(C)C2CCS(=O)(=O)C2)nc2ccccc2c1=O (stereo unspecified)	3929	8	8.0	-17	-32	14	8
COc1ccc(-c2nn(-c3ccccc3)cc2/C=C(\C#N)C(N)=O)cc1[N+](=O)[O-]	3343	7	5.8	-6	8	-1	-2
COCCCNC(=O)CCC(=O)Nc1ccc2nc(N3CCOCC3)cc(C)c2c1	5415	-8	7.2	-61	5	3	9
CC1NC(C)c2c(ccc3ccccc23)O1 (stereo unspecified)	3093	-1	3.5	1	.	5	-1
COc1cccc(NC(=O)CSc2nc3ccccc3c(=O)n2CCCC(=O)N2CCCC2)c1	23337*	.	.	-21	-5	.	.
O=C(c1ccc(S(=O)(=O)N2CCC(c3nc4ccccc4s3)CC2)cc1)N1CCOCC1	23501*	3	4.6	2	1	-6	2
CC(=O)c1ccc(NC(=O)CSCC(=O)Nc2ccc3ccccc3c2)cc1	2759	.	.	-159	-6	.	.
COC(=O)c1cccnc1-n1c(=O)c2cccnc2n(Cc2cccc(OC)c2)c1=O	4291	1	6.3	-19	3	3	5
O=C(NCc1ccccn1)c1ccc(CNS(=O)(=O)c2ccc(F)cc2)cc1	2572	7	1.9	-24	7	-10	6
COc1ccc(C(=O)Cn2nnc(-c3cccs3)n2)cc1	5824	-1	2.1	-54	-5	6	10
O=C(C[C@H]1C(=O)N(Cc2ccccc2)C[C@@H]1Cc1ccccc1)Nc1ccccc1	3745	.	.	-11	1	.	.
O=C(O)CC(NC(=O)OCc1ccccc1)c1ccc(Br)cc1 (stereo unspecified)	3581	-3	4.5	5	-4	18	7
COc1ccc(CC(=O)NCC(=O)NN=Cc2ccc(C)o2)cc1	.	8	3.1	.	.	11	3
COc1cccc(N2CC(=O)Nc3c(oc4nc(-c5ccccc5)cc(C)c34)C2=O)c1	5825	-1	-3.8	-35	1	8	8
Cn1cnc2c(ncn2C2OC(CO)C(O)C2O)c1=S (stereo unspecified)	2888	3	2.1	1	.	0	2
Cc1cccc(C(=O)OCC(=O)Nc2c(C)n(C)n(-c3ccccc3)c2=O)c1	6283	8	2.6	-41	.	8	4
CCc1noc(C)c1C(=O)N1CCN(S(=O)(=O)c2ccc(Br)cc2Cl)CC1	.	8	6.0	-19	9	-2	-9
Cc1nc(N)nc(Nc2ccc(C#N)cc2)c1Br	4148	-5	1.4	-21	13	-4	4
Cc1ccc(CN2CCN(c3ncccn3)CC2)c(C)c1	2924	5	3.7	-14	-8	-3	-4
CCOC(=O)C1CCCN(C(=O)c2ccc3oc(CCc4ccccc4)nc3c2)C1 (stereo unspecified)	5772	-6	1.5	-43	-5	-6	0
Cc1cc(NC(=O)CCN2C(=O)C3C4CCC(C4)C3C2=O)c(C)cc1Br (stereo unspecified)	?	10	-1.5	-28	-9	6	6
COc1cc(Nc2nc(-c3ccccc3)c3cc(C)ccc3n2)cc(OC)c1OC	4277	-8	5.0	-20	-7	2	3
CN(CC(=O)Nc1c(Cl)cccc1Cl)C(=O)c1ccccc1Cc1ccccc1	5536	3	17	-23	4	1	-8
CCNC(=O)C(CC(C)C)NC(=O)C(CO)NC(=O)C1CCC(=O)N1 (stereo unspecified)	5215	2	0.6	-17	4	1	-4
O=C1CC2(CCN(C(=O)C3CC(=O)N(c4ccc(F)cc4)C3)CC2)Oc2ccccc21 (stereo unspecified)	6712	4	2.0	-19	-7	10	0
Cc1ccc(-c2nn(C)c(=O)c3ccccc23)cc1CNC(=O)Cn1nc(-c2ccccc2)c2ccccc2c1=O	.	2	5.9	.	-3	11	6
COc1cccc(C(=O)N2CCN(C(=O)c3cccc(F)c3)CC2)c1	4082	6	-0.1	-17	1	11	1
CCn1c(N2CCN(CC(=O)c3c[nH]c4ccccc34)CC2)nc2c1c(=O)[nH]c(=O)n2C	4154	3	0.0	-6	-1	.	.
Cc1ccsc1/C=C1/SC(N2CC(C)OC(C)C2)=NC1=O (stereo unspecified)	2001	16	3.9	-11	-1	.	.
O=C(Cc1ccccc1)c1c[nH]c(C(=O)NCCCN2CCOCC2)c1	4430	-3	-0.3	-1	3	1	11
COC(=O)[C@H](Cc1ccccc1)NC(=O)Cn1cnc2c(OCc3ccccc3)ncnc21	3054	7	0.1	-3	.	-2	-8
CCSc1nnc(Nc2ccc(C)cc2)s1	7769	1	9.6	-89	5	15	13
COc1cc2nc(=S)n3[nH]c(CCn4nc(C)cc4C)nc3c2cc1OC	4686	0	0.8	-14	2	.	.
Cc1cc(Cl)c(S(=O)(=O)NC(C(=O)O)c2ccccc2)cc1OCC(N)=O (stereo unspecified)	3299	0	11	-17	-2	6	3
Nc1nc(-c2cccs2)cs1	5176	10	5.5	-25	9	-4	6
CC(=O)c1ccccc1C(=O)N1CCC(n2nccc2NC(=O)C2CC2)CC1	?	-2	-0.3	-9	-5	8	10
COc1ccc(/C(=C/c2ccc(OC(F)F)c(OC)c2)C(=O)O)cc1OC	2059	1	2.8	-18	1	10	4
CCOC(=O)C1=C(c2ccccc2)N=c2sc(=Cc3ccco3)c(=O)n2C1c1cccs1 (stereo unspecified)	.	-8	2.7	.	.	-8	4
COc1ccccc1CNC(=O)CN1C(=O)NC(Cc2ccccc2)(c2ccccc2)C1=O (stereo unspecified)	3018	-4	2.3	9	.	5	7
CC(=O)C1=C(O)C(=O)N(Cc2ccccc2)C1c1ccc([N+](=O)[O-])cc1 (stereo unspecified)	3351	.	.	-43	-3	.	.
CCCCOc1c(Cl)cc(C(=O)N2CCN(CC(=O)N3CCCC3)CC2)cc1OCC	4762	42	2.4	0	.	-9	0
Cc1nc2sc3c(c2c(=O)n1N=Cc1cccnc1)CCCC3	.	6	-2.1	.	.	18	6
CCOC(=O)C1=C(COC(=O)CCOc2ccccc2C)NC(=O)NC1C (stereo unspecified)	5124	0	4.8	-8	10	6	-1
c1ccc(-c2nc3nonc3c3nc4ccccc4n23)cc1	9143	-6	0.4	-5	4	-7	5

Continued.
smiles	Autofluor counter	Sa ugtP lethal	RN4220 kill	PrP 5UTR inh	BJeLR lethal	Mtb hypoxia rep	Mtb hypoxia rep growth
COc1ccc(NC(=O)C2CCN(S(=O)(=O)c3c(C)nn(C)c3C)CC2)cc1	5496	-2	0.9	-9	1	2	3
CCN(CC)S(=O)(=O)c1cc(NS(=O)(=O)c2ccccc2)ccc1C	2174	0	13	-9	6	16	7
CC(C)c1ccccc1NC(=O)CC1(CC(=O)O)CCCC1	.	3	5.8	3	-16	-6	-1
COc1ccccc1-n1cnnc1SCC(=O)NCC1CCCO1 (stereo unspecified)	3491	2	1.9	-19	7	5	9
COC(=O)C1=C[C@@H](C(=O)OC)[C@@H]2C3=C(C(=O)C2(C)C)[C@H](c2ccccc2)[C@@H]2C(=O)N(C)C(=O)[C@@H]2[C@@H]3C1	3893	.	.	-15	2	.	.
CCC1CCCC1=NNC(=O)c1ccccc1C (stereo unspecified)	.	2	5.4	.	.	4	16
CN1CCN(/N=C/c2nc(-c3ccc(Cl)cc3)n3ccccc23)CC1	2334	.	.	-11	-3	.	.
CCCCc1cc(=O)oc2c(C)c(OCC(=O)NCC3CCC(C(=O)O)CC3)ccc12 (stereo unspecified)	5232	2	2.2	-24	3	.	.
CCOc1ccc(NC(=O)CN(C)C(=O)C2CCCC2)cc1OCC	4447	13	7.3	83*	6	5	10
CC1CCCN(C(=O)C(Cc2ccccc2)n2cccc2)C1 (stereo unspecified)	6355	1	5.0	-14	-10	0	-1
COc1cccc(-c2cc(C(=O)Nc3ccc4c(c3)OCO4)no2)c1	2939	9	8.2	-15	-8	-13	-3

Some of these compounds in order of molecular weight, low to high.
smiles	Autofluor counter	Sa ugtP lethal	RN4220 kill	PrP 5UTR inh	BJeLR lethal	Mtb hypoxia rep	Mtb hypoxia rep growth
CC1CCCN(C(=O)C(Cc2ccccc2)n2cccc2)C1 (stereo unspecified)	6355	1	5.0	-14	-10	0	-1
COc1cccc(-c2cc(C(=O)Nc3ccc4c(c3)OCO4)no2)c1	2939	9	8.2	-15	-8	-13	-3
COc1ccc(NC(=O)C2CCN(S(=O)(=O)c3c(C)nn(C)c3C)CC2)cc1	5496	-2	0.9	-9	1	2	3
COC(=O)C1=C[C@@H](C(=O)OC)[C@@H]2C3=C(C(=O)C2(C)C)[C@H](c2ccccc2)[C@@H]2C(=O)N(C)C(=O)[C@@H]2[C@@H]3C1	3893	.	.	-15	2	.	.
